Lassa entry inh: Lassa virus entry inhibition. Lassa virus pseudotype entry inhibition, cell reporter; control for the full effect not named in the record. Potency, µM (doses to about 37.9 µM), for inactives: at the highest dose activity change, negative = inhibition, hits mostly inhibitors. actives 1.2% (n = 300,000); active means well fitted inhibition curve with a large enough effect; inconclusive means small, poorly fitted or top-dose-only effect, or effect the other way; inactive means flat fitted curve, though single readings scatter; tested in HEK293 cells; also: % is scaled to controls: 0 for no effect and ±100 for the full control effect; nearly all actives have a fitted effect of over 50% in size; luciferase read-out
Cruzain noTriton: inhibitors of Trypanosoma cruzi cruzain without detergent; P25779; purified cruzain, Z-FR-AMC fluorescence, no detergent; Potency, µM, inactives show max response, negative = inhibition, most hits filed as inhibitors; actives 2.3% (n = 200,000);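 also: plate controls were enzyme without inhibitor for no effect and buffer without enzyme for full effect; nearly all actives have a fitted effect of over 40% in size; top concentration of the series not given in the record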
Target sequence (P25779 123-467 limits assumed): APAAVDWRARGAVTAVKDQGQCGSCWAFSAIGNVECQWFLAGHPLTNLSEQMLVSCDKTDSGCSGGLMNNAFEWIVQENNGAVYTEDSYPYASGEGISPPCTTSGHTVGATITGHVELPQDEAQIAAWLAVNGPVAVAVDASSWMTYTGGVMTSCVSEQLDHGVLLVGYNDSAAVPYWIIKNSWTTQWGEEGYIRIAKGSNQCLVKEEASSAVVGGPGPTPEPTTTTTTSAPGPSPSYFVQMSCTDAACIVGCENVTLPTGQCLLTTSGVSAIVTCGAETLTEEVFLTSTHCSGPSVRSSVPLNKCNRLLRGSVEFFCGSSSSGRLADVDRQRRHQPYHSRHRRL
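Detergent-free condition (0.00005% Triton X-100) in acetate buffer pH 5.5 with DTT. 1.5 nM enzyme and compound were pre-mixed 15 min, then 2 uM Z-FR-AMC substrate added; reaction progress from fluorescence change between first and third reads (60 s).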
NS1 inh: influenza NS1 inhibition; S. cerevisiae slowed by influenza A NS1, growth recovery by OD600; Potency, µM (doses to about 46.1 µM), without a hit: top-dose activity, positive = more growth; actives 0.4% (n = 270,000); AID 2326; active means well fitted rising curve with a large enough effect; inconclusive means small, poorly fitted or top-dose-only effect; inactive means no such curve, though single readings can be large or run the other way; also: nearly all actives have a fitted effect of over 50% in size
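In this qHTS, NS1 from influenza A is expressed in budding yeast, where it slows growth. Cells are switched from glucose to 2% galactose medium (pH 6.0, -URA), treated with compound, and growth recovery is read at OD600.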
SARS PLP yeast: inhibitors of SARS-CoV papain-like protease in yeast; Potency, µM (titrated, usually from 32.9 µM), for the others: at the top dose activity, positive = growth rescue; actives 0.19% (n = 330,000); S. cerevisiae expressing SARS-CoV PLpro, growth rescue; control for the full effect not named in the record; active means well fitted rising curve with a large enough effect; inconclusive means small, poorly fitted or top-dose-only effect; inactive means no such curve, though single readings can be large or run the other way; also: 0% is about no effect; nearly all actives have a fitted effect of over 55% in size; growth read by luminescence after 48 h
StopGo reporter: lowers the luciferase signal of an FMDV 2A StopGo reporter. human cells with a luciferase reporter of 2A StopGo recoding; control for the full effect not named in the record. Potency, µM (highest dose often 57.9 µM), for inactives: top-dose signal change, negative = less light. actives 1.2% (n = 410,000); active = well fitted falling curve with a large enough effect; inconclusive = small, poorly fitted or top-dose-only effect; inactive = no such curve, though single readings can be large or run the other way; tested in HEK293T cells; also: % is scaled to controls: 0 for no effect and ±100 for the full control effect; nearly all actives have a fitted effect of over 45% in size; luciferase light after 4 h
MARV entry inh: blocks Marburg virus binding to or entry into cells | Marburg virus pseudotyped entry inhibition, cell reporter; control for the full effect not named in the record; about a third of the inactives were read at about 46 µM | Potency, µM (highest dose often 37.8 µM), without a hit: at the top dose activity change, negative = inhibition, actives largely listed as inhibitors | actives 1.8% (n = 300,000) | AID 540276; active = well fitted inhibition curve with a large enough effect; inconclusive = small, poorly fitted or top-dose-only effect, or effect the other way; inactive = flat fitted curve, though single readings scatter; tested in HEK293 cells; about a fifth of its hits are not listed in these tables; also: % is scaled to controls: 0 for no effect and ±100 for the full control effect; luciferase read-out
Cruzain Triton: cruzain (T. cruzi) inhibition with detergent; purified cruzain, Z-FR-AMC fluorescence, 0.01% Triton; Potency, µM, for inactives: max response, negative = inhibition, usual class: inhibitors; actives 0.43% (n = 200,000); AID 1478;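 also: plate controls were neutral wells for no effect and buffer without enzyme for full effect; nearly all actives have a fitted effect of over 40% in size; top concentration of the series not given in the record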
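Detergent-containing arm of a paired screen for aggregation-based inhibition: 0.01% Triton X-100 present. Cruzain at 1.5 nM cleaved 2 uM Z-FR-AMC at pH 5.5 with 5 mM DTT; AMC fluorescence gain over 60 s measured activity.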
RE007 growth inh: less growth of the S. pombe RE007 Vpr strain | S. pombe RE007 Vpr strain, BacTiter-Glo ATP luminescence, 24 h; control for the full effect not named in the record | Potency, µM (doses to about 92.2 µM), for inactives: at the top dose activity change, negative = less growth | actives 0.21% (n = 360,000) | AID 651644; active = well fitted falling curve with a large enough effect; inconclusive = small, poorly fitted or top-dose-only effect; inactive = no such curve, though single readings can be large or run the other way;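 also: % is scaled to controls: 0 for no effect and ±100 for the full control effect; nearly all actives have a fitted effect of over 50% in size; the assay follows cell death caused by Vpr and the record does not say whether a fall means rescue or toxicity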
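Fission yeast RE007 carrying one integrated HIV-1 vpr copy, seeded at OD 0.01 in PMG+AL medium with 23 nL pinned compound. Grown 24 h at 30 degrees; viability read by BacTiter-Glo luminescence after 5 min.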
* = called active by the depositor; ? = inconclusive; . = not tested or not shown; & = joins results of further samples; [ ] = dose if it differs, or a comment. Unless noted, calls follow the shape of the dose curve; as a rule, active = well fitted curve in the direction sought with a large enough effect; inconclusive = small, poorly fitted or top-dose-only effect, or another doubt; inactive = no such curve, though single readings can be large; an effect the other way counts as inactive or inconclusive. Potency is read from the fitted curve at half-maximal effect. Compounds as they come; overall some 4.7% were active at least once.

SMILES	Lassa entry inh	Cruzain noTriton	NS1 inh	SARS PLP yeast	StopGo reporter	MARV entry inh	Cruzain Triton	RE007 growth inh
O=c1c2ccccc2nc2n1CCCCN2	7%	-5%	-10%	2%	32%[activator]	18%	-4.4%	?
CN(C(=O)c1cc2c(Cl)nc3ccccc3c2s1)c1cccc(C(F)(F)F)c1	14%[46.1 µM]	0%	.	.	-6%	2%[46.1 µM]	1.0%	.
Cc1ccc(NC(=O)CCCn2c(=O)c3cccn3c3ccccc32)cc1Cl	-26%[46.1 µM]	9%	.	.	-7%	.	-9.8%	.
Cc1[nH]c2ccccc2c1/C=N/NS(=O)(=O)c1ccccc1	0%	.	.	1%	16%	?	.	6%
Cc1cc(NC(=O)CCC(=O)N(c2ccc(F)cc2)C(C(=O)NC2CCCC2)c2ccncc2)no1 (stereo unspecified)	20%	-9%	-18%	-5%	-3%	-2%	0.1%	0%
CCC(=O)N1CCc2cc(S(=O)(=O)NCCCN3CCN(Cc4ccccc4)CC3)ccc21	16%	-13%	9%	12%	-18%	0%	5.0%	-16%
Cn1cccc1Cc1nnc(SCC(=O)NC2CCCCC2)n1-c1ccc(F)cc1	.	-7%	10%	5%	12%	.	5.2%	-10%
CC12CCCCC1N(O)C(=O)C(=O)N2O (stereo unspecified)	-10%	1%	2%	-8%	-7%	3%	-2.5%	-21%
CC1CCCN(C(=O)CN2C(=O)c3ccccc3C2=O)C1 (stereo unspecified)	-3%	-11%	4%	-3%	3%	-1%	3.3%	11%[3.69 µM]
CC1(C)CC(=O)C(C=Nc2ccccc2Sc2ccccc2)=C(O)C1	?	6%	-6%	3%	?	13%	-4.7%	20µM*
COc1ccc(OCC(=O)NCCCCCCNC(=O)COc2ccc(OC)cc2)cc1	-5%[46.1 µM]	.	10%	8%	-6%	12%[46.1 µM]	.	11%
O=C(Nc1ccc2c(c1)OCO2)N1CCN(c2ccccc2Cl)CC1	10%	0%	-6%	-13%	42%[activator]	1%	0.9%	-20%
COc1ccccc1C(C)NC(=O)Cc1ccc(S(=O)(=O)N2CCOCC2)s1 (stereo unspecified)	0%[46.1 µM]	.	.	0%	-16%	-11%	.	7%
COc1ccc(Cl)cc1C(=O)n1cnc2ccccc21	.	.	-2%	-2%	-24%	.	.	-5%
Cn1cc(Br)c(C(=O)Nc2sc3c(c2C(N)=O)CCC3)n1	?	3%	0%	2%	35%[activator]	6%	-9.3%	13%
Cc1ccc(S(=O)(=O)[N-]c2nc3ccccc3nc2-n2cc[n+](Cc3ccccc3)c2)cc1	-19%	.	6%	0%	50%[activator]	-25%	.	-12%
O=C(CN1C(=O)c2ccccc2C1=O)NCC(=O)OCC(=O)c1cccc([N+](=O)[O-])c1	8%[46.1 µM]	.	.	2%	-5%	2%[46.1 µM]	.	9%
Cc1cccc(N2CCN(C(=O)c3ccc(CS(=O)(=O)c4ccccc4C)o3)CC2C)c1 (stereo unspecified)	4%	?	-9%	-12%	5%	-23%	-5.1%	-7%[3.69 µM]
CN(C)CCCNCC(=O)Nc1ccc(Cl)cc1C(=O)c1ccccc1	-19%[46.1 µM]	.	-3%	0%	-8%	11µM*	.	5%
O=C(O)c1cccc(S(=O)(=O)Nc2ccccc2N2CCOCC2)c1	.	.	5%	1%	-5%	.	.	2%
CC(=O)N1CCN(C(=O)c2cccc(S(=O)(=O)NCc3ccccc3)c2)CC1	-5%	.	.	-4%	-3%	?	.	-2%
CCOC(=O)c1c(C)[nH]c(C(=O)NNC(=O)c2ccccc2)c1C	?	3%	5%	3%	-9%	-29%	4.8%	-1%
CC(C)c1nnc(NC(=O)CC(=O)Nc2ccccc2C(=O)O)s1	6.3µM*	-3%	10%	4%	-34%	?	-0.5%	2%
C=CCN1C(=O)c2ccc(C(=O)N3CCC(C(N)=O)CC3)cc2C1=O	.	.	-18%	-1%	-25%	.	.	7%
CC(NCc1ccc(F)cc1)C(=O)Nc1cc(S(=O)(=O)N2CCCCC2)ccc1Cl (stereo unspecified)	?	.	.	-4%	5%	?	.	21%
Cc1nn(CCC(=O)NCc2ccc(N(C)C)cc2)c(=O)c2nn(-c3ccccc3)c(C)c12	4%[46.1 µM]	-17%	-2%	0%	-17%&3%	.	-0.7%	-4%
Cc1cccc(OCC2=NS(=O)(=O)c3ccccc3N2)c1	0%	6%	4%	-4%	92%[activator]	4%	1.6%	-2%
COc1ccc(CC(=O)Nc2ccccc2NC(=O)Cc2ccc(OC)cc2)cc1	.	.	1%	1%	-2%	.	.	-3%
CCOC(=O)C(=O)N1CCN(CC)CC1	2%	-4%	5%	20%	-6%	0%	0.4%	1%
COc1cccc(CNCc2ccccc2OC)c1	.	.	5%	-2%	-2%	.	.	-3%
CC(C)Oc1ccc(CNC(=O)c2cccc(NC(=O)c3nsc4ccccc34)c2)cc1	?	-26%	.	.	-8%	.	-1.1%	.
O=C(O)CCCCC1SCC2NC(=O)NC21 (stereo unspecified)	.	4%&5%	2%&6%	0%&14%	1%&-13%	.	3.4%&-0.5%	-14%
CC(C)(C)NC(=O)C(c1ccncc1)N(C(=O)Cn1nnc(-c2ccc(F)cc2)n1)c1ccccc1 (stereo unspecified)	1%	.	-1%	1%	-5%	-14%[46.1 µM]	.	5%
Cc1ccc(Sc2ccc(C(=O)N(C)C)cc2[N+](=O)[O-])cc1	-8%	.	-10%	-1%	-6%	-6%	.	-1%
Cc1ccc2cc3c(NC(=O)c4cccnc4)nn(C)c3nc2c1	1%	?	-4%	19%	0%	-22%	-3.8%	-12%
CSc1ccccc1NC(=O)COC(=O)c1ccc(O)cc1	5%[46.1 µM]	.	.	-1%	0%	23%[46.1 µM]	.	?
O=C(CSc1ncc(C(=O)O)n1-c1ccc(F)cc1)NCc1ccc2c(c1)OCO2	-6%	.	.	0%	-10%	-6%[46.1 µM]	.	7%
CNC(=S)N/N=C/c1cn(Cc2ccc(C)cc2)c2ccccc12	?	?	?	.	-21%	?	-10%	17%
O=S(=O)(c1ccc(O)cc1)c1ccc(O)cc1	.	.	5%	-1%	1%	.	.	11%
Cn1cc(C=O)c2cc(F)ccc21	.	.	2%	0%	2%	.	.	-6%
Cn1nc(-c2ccccc2)cc1NC(=O)Nc1ccccc1F	3%	.	1%	0%	44%[activator]	-3%[14.2 µM]	.	-18%
O=C(NCc1ccccn1)c1cn(Cc2ccccc2)nn1	8%	-6%	-3%	5%	-6%	3%	4.8%	0%
COC(=O)CN1C(c2ccc(Cl)cc2)=Nc2ccc(Cl)cc2C1c1ccccc1 (stereo unspecified)	-30%	-12%	-60%	-81%	?	?	-2.2%	-1%
CCC(C)NC(=O)c1cc2cc3ccc(OC)cc3nc2o1 (stereo unspecified)	-5%	.	5%	0%	32%[activator]	?	.	-12%
C=C(C)c1ccc(C(C)(C)NC(=O)N2CCN(C)CC2)cc1	14%	-3%	-7%	2%	0%	2%	-0.1%	8%
Cc1ccccc1NC(=O)c1ccc2c(c1)CCN2S(C)(=O)=O	?	.	6%	7%	-3%	8%	.	4%
NC(=O)Cn1cc(/C=N/NC(=O)c2ccc(Cn3cc(Cl)cn3)o2)c(-c2ccccc2)n1	13%[46.1 µM]	.	7%	3%	-11%	-3%[46.1 µM]	.	-8%
CCCc1cc(=O)[nH]c(SCC(=O)c2ccc(S(=O)(=O)N3CCCC3)cc2)n1	0%	-13%	3%	-16%	?	?	-8.1%	-1%
Nc1nnc(SCC(=O)N2CCN(c3ccccc3)CC2)s1	24%	-10%	-5%	1%	5%	-3%	0.9%	20%
CCc1ccc(NC(=O)N(Cc2cccnc2)Cc2ccco2)cc1	0%	13%	-19%	-4%	-2%	6%	-0.9%	6%
CCCCCC1CCC(c2ccc(/C(N)=N/O)cc2)CC1 (stereo unspecified)	.	.	1%	-1%	-8%	.	.	-3%
Cc1ccc(S(=O)(=O)N2CCN(C)CC2)cc1C	.	.	3%	-4%	0%	.	.	6%
CCOC(=O)c1c(C)[nH]c(C)c1S(=O)(=O)N1CCC(C(=O)Nc2ccc(F)cc2F)CC1	-6%[46.1 µM]	-9%	.	.	1%	.	0.0%	.
O=C(Nc1ccc(N2CCOCC2)cc1)c1cc(F)c(F)cc1Cl	21%	-7%	0%	-7%	56%[activator]	12%	-0.5%	-12%
Cc1ccc(-c2ccc(CCC(=O)O)o2)cc1	-15%	-4%	-204%	-20%	12%	-24%	1.4%	-14%
CCCn1cc(CN2CCC(n3nccc3NC(=O)c3ccccc3)CC2)c(C)n1	12%	.	2%	4%	-6%	18%	.	25%
Fc1ccc(-c2csc(NC3=NCCC3)n2)cc1	-15%[46.1 µM]	.	.	-3%	24%	2%[46.1 µM]	.	-4%
CN(Cc1cccnc1)C(=O)CC1C(=O)NCCN1CC(c1ccccc1)c1ccccc1 (stereo unspecified)	.	.	-4%	-3%	5%	.	.	3%
O=C(c1cccs1)N(CCO)Cc1cc2cc3c(cc2[nH]c1=O)OCCO3	.	-5%	3%	2%	.	-1%	-3.0%	.
CN(N=Cc1cccc2cccnc12)c1ccc([N+](=O)[O-])cc1[N+](=O)[O-]	1%	.	.	.	-14%	?	.	-6%
(cont.)
SMILES	Lassa entry inh	Cruzain noTriton	NS1 inh	SARS PLP yeast	StopGo reporter	MARV entry inh	Cruzain Triton	RE007 growth inh
Cc1nc(NC(=O)CCC(=O)O)sc1C(=O)N(C)C	5%	6%	7%	5%	-10%	-15%	1.5%	-4%
CNC(=S)NC1CC2CCC(C1)N2Cc1ccccc1 (stereo unspecified)	11%	-6%	-6%	4%	.	?	4.4%	-13%
CN(C)S(=O)(=O)c1ccc2c(c1)c(=O)c(C(=O)N1CCN(c3ccccn3)CC1)cn2C	.	-18%	-7%	-4%	-18%	.	-1.6%	1%
O=C(Nc1c(C(=O)N2CCCC2)cnn1-c1ccccc1)c1cccc(F)c1	6%	2%	-1%	1%	4%	?	1.5%	-9%
